NOMO-1 viab: STK33 inhibitor candidate reducing NOMO-1 cell viability; AID 2330; inhibition, % (test concentration not listed); hit rate 7.5% among 37,000; NOMO-1 AML viability, CellTiter-Glo luminescence, 72 h;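 active means most replicates above 80%; inconclusive means exactly half above 80%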;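 further: wells of about 30 µL received 25 nL stock; 0% = median of vehicle wells and 100% = reference inhibitor level; the first replicate is given; inactives centre near 10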
The depositor's hits bear a star; ? = inconclusive. An excerpt (hit frequency here may not be typical).

SMILES | NOMO-1 viab
C[C@@H]1CCCCO[C@@H](CN(C)Cc2ccncc2)[C@@H](C)CN([C@H](C)CO)C(=O)c2cc(NC(=O)Nc3ccc4c(c3)OCO4)ccc2O1 | 4
C[C@@H]1CN([C@H](C)CO)C(=O)Cc2cc(N(C)C)ccc2O[C@H]1CN(C)CC1CC1 | 19
CC(C)NC(=O)Nc1ccc2c(c1)CC(=O)N([C@H](C)CO)C[C@@H](C)[C@@H](CN(C)C(=O)Nc1ccc(C(F)(F)F)cc1)O2 | 21
COc1ccc(NC(=O)N(C)C[C@H]2Oc3ccc(NC(=O)Cc4cn(C)c5ccccc45)cc3C(=O)N([C@H](C)CO)C[C@H]2C)cc1 | 33
C[C@H](CO)N1C[C@H](C)[C@H](CN(C)S(C)(=O)=O)Oc2c(cccc2N(C)C)C1=O | 0
C[C@H](CO)N1C[C@H](C)[C@H](CN(C)C(=O)Nc2ccccc2)Oc2ccc(NC(=O)Nc3cccc4ccccc34)cc2C1=O | 9
COc1ccc(NC(=O)N(C)C[C@@H]2Oc3ccc(NC(=O)Nc4ccc(C(F)(F)F)cc4)cc3C(=O)N([C@H](C)CO)C[C@H]2C)cc1 | 31
O=C1CC2(CCCC2)C(=O)N1c1cc(C(F)(F)F)cc(C(F)(F)F)c1 | 18
COc1ccc(NC(=O)CSc2c(C)n[nH]c2C)cc1 | 7
CNC[C@H]1Oc2c(NC(=O)Nc3cccc4ccccc34)cccc2C(=O)N([C@H](C)CO)C[C@H]1C | 14
CNC(=O)CN(c1ccc(Br)cc1)S(=O)(=O)c1ccc(C)cc1 | 26
O=C(O)CCCC(=O)Nc1cc(C(=O)O)ccc1Cl | 15
Cc1ccc(-c2csc3nnc(SCC(=O)N4CCOCC4)n23)cc1 | 5
CC(C)(C)NC(=O)c1ccc2c3c(onc13)-c1ccccc1C2=O | 114*
CCOC(=O)c1c(NC(=O)COc2ccc(C)cc2Br)sc(C)c1C | 13
CC(=O)O[C@H]1C[C@@H](OC(C)=O)C(C)(C)C2C[C@@H](OC(C)=O)[C@]3(C)C([C@H](OC(C)=O)C[C@@]4(C)[C@H](c5ccoc5)OC(=O)[C@H]5O[C@]543)[C@]21C (stereo partly specified) | 40
C[C@@H]1CN([C@H](C)CO)C(=O)c2cc(NS(=O)(=O)c3cn(C)cn3)ccc2O[C@@H]1CN(C)Cc1ccc2c(c1)OCO2 | -17
Cc1ccc(S(=O)(=O)N(C)C[C@H]2Oc3c(NC(=O)Nc4c(C)noc4C)cccc3C(=O)N([C@@H](C)CO)C[C@H]2C)cc1 | 23
Cc1n[nH]c(C)c1N1C(=O)c2cccc3c(N)ccc(c23)C1=O | -13
COc1cc(S(=O)(=O)NCC2CCCO2)c(OC)cc1Cl (stereo unspecified) | 29
C[C@H](CO)N1C[C@H](C)[C@H](CN(C)C)Oc2c(NC(=O)CCCCCC(=O)Nc3ccccc3N)cccc2C1=O | 19
Cc1ccc(Oc2coc3cc(OCC(=O)Nc4ccccc4C(F)(F)F)ccc3c2=O)cc1 | -8
C[C@@H]1CN([C@H](C)CO)C(=O)Cc2cc(NC(=O)Nc3ccc(C(F)(F)F)cc3)ccc2O[C@@H]1CN(C)C(=O)Nc1ccc(C(F)(F)F)cc1 | 53
COc1ccccc1CCNC(=O)c1cc(-c2ccncc2)nc2ccc(Br)cc12 | 94*
C[C@H](CO)N1C[C@H](C)[C@@H](CN(C)C(=O)Nc2cccc3ccccc23)Oc2c(NC(=O)CCCCCC(=O)Nc3ccccc3N)cccc2C1=O | 14

5 entries from above, in markdown.
| Compound | NOMO-1 viab |
| --- | --- |
| C[C@@H]1CN([C@H](C)CO)C(=O)c2cc(NS(=O)(=O)c3cn(C)cn3)ccc2O[C@@H]1CN(C)Cc1ccc2c(c1)OCO2 | -17 |
| Cc1ccc(S(=O)(=O)N(C)C[C@H]2Oc3c(NC(=O)Nc4c(C)noc4C)cccc3C(=O)N([C@@H](C)CO)C[C@H]2C)cc1 | 23 |
| Cc1n[nH]c(C)c1N1C(=O)c2cccc3c(N)ccc(c23)C1=O | -13 |
| COc1cc(S(=O)(=O)NCC2CCCO2)c(OC)cc1Cl (stereo unspecified) | 29 |
| C[C@H](CO)N1C[C@H](C)[C@H](CN(C)C)Oc2c(NC(=O)CCCCCC(=O)Nc3ccccc3N)cccc2C1=O | 19 |

Carrying on.
SMILES | NOMO-1 viab
NC(=O)C1(N2CCCCC2)CCN(CC(=O)Nc2ccc(Br)cc2)CC1 | -14
C[C@@H]1CN([C@H](C)CO)C(=O)Cc2cc(NC(=O)Nc3cccc4ccccc34)ccc2O[C@H]1CN(C)Cc1ccncc1 | 3
CC(C)NC(=O)N(C)C[C@@H]1Oc2ccc(NC(=O)c3ccncc3)cc2CC(=O)N([C@H](C)CO)C[C@@H]1C | 30
COCCNc1ncnc2c1cnn2Cc1ccc(C)cc1 | 51
C[C@H]1CN([C@@H](C)CO)C(=O)c2cc(NS(=O)(=O)c3cn(C)cn3)ccc2O[C@@H]1CN(C)Cc1ccncc1 | 22
CN(CC(=O)O)S(=O)(=O)c1ccc2ccccc2c1 | 2
C[C@@H]1CN([C@@H](C)CO)C(=O)c2cccc(NC(=O)c3ccc(-c4nccs4)cc3)c2O[C@H]1CN(C)Cc1ccncc1 | 17
Cc1ccc2nc(-c3cccnc3)cc(C(=O)Nc3sc4c(c3C(N)=O)CCCCCC4)c2c1 | ?
COc1cc2c(cc1O)C1Cc3ccc(O)c(OC)c3CN1CC2 (stereo unspecified) | 6
Cc1noc(C)c1NC(=O)Nc1ccc2c(c1)C(=O)N([C@H](C)CO)C[C@@H](C)[C@@H](CN(C)CC1CCCCC1)O2 | 5
Cc1ccc(NC(=O)c2c(NC(=O)CN3CCOCC3)sc3c2CCC3)c(C)c1 | 53
CNC[C@@H]1Oc2ccc(NC(=O)Cn3cnnn3)cc2CC(=O)N([C@@H](C)CO)C[C@@H]1C | 4
CCCCC[C@H](CC(=O)NO)C(=O)N[C@H](C(=O)N1CCC[C@H]1CO)C(C)C | 107*
Cc1ccc(S(=O)(=O)Nc2cccc3c2O[C@@H](CN(C)C(=O)Nc2ccc(F)cc2)[C@@H](C)CN([C@H](C)CO)C3=O)cc1 | 50
CCCN(C)C[C@H]1OCCCC[C@@H](C)Oc2ccc(NC(=O)CCC(F)(F)F)cc2C(=O)N([C@H](C)CO)C[C@@H]1C | 13
Nc1nc2ccc(-c3nc4ccccc4o3)cc2s1 | 9
C[C@@H]1CN([C@H](C)CO)C(=O)c2cc(NS(=O)(=O)c3cccs3)ccc2O[C@H]1CN(C)S(=O)(=O)c1ccc(Cl)cc1 | -10
OCCN(CCO)Cc1ccc(Br)cc1 | -11
Cc1cccc(OCC(O)Cn2cnc3cc(C)c(C)cc32)c1 (stereo unspecified) | 36
COc1ccc(-c2nc3ccccc3s2)cc1NC(=O)COc1cc(C)ccc1C(C)C | 22
C[C@H](CO)N1C[C@H](C)[C@H](CN(C)C(=O)Nc2ccc(F)cc2)Oc2ccc(NS(=O)(=O)c3ccccc3)cc2C1=O | 15
COc1ccccc1OC(C)C(=O)NN (stereo unspecified) | -1
COc1ccc(NC(=O)Nc2cccc3c2O[C@@H](CN(C)C(=O)Nc2ccccc2)[C@@H](C)CN([C@H](C)CO)C3=O)cc1 | 30
C=Cc1ccc(O[C@@H]2O[C@H](CO)[C@@H](O)[C@H](O)[C@H]2O[C@@H]2O[C@@H](C)[C@H](O)[C@@H](O)[C@H]2O)cc1 | 2
COc1ccc(Cl)cc1NC(=O)C12CCC(C)(c3nc4ccccc4nc31)C2(C)C (stereo unspecified) | -3

Another view of 3 compounds above.
compound: COc1ccc(-c2nc3ccccc3s2)cc1NC(=O)COc1cc(C)ccc1C(C)C
  NOMO-1 viab: 22

compound: COc1cc2c(cc1O)C1Cc3ccc(O)c(OC)c3CN1CC2 (stereo unspecified)
  NOMO-1 viab: 6

compound: COCCNc1ncnc2c1cnn2Cc1ccc(C)cc1
  NOMO-1 viab: 51

Going on with the list:
SMILES | NOMO-1 viab
C[S+](O)c1ccc(CSc2nc(-c3ccc(F)cc3)c(-c3ccncc3)[nH]2)cc1 (stereo unspecified) | -37
C[C@@H]1CN([C@H](C)CO)C(=O)c2cc(NC(=O)Cn3cnnn3)ccc2O[C@H]1CN(C)C(=O)Nc1cccc2ccccc12 | 1
CNC[C@@H]1Oc2ccc(NS(=O)(=O)c3cccs3)cc2C(=O)N([C@H](C)CO)C[C@@H]1C | -11
CC(C)NC(=O)N(C)C[C@@H]1Oc2c(cccc2N(C)C)C(=O)N([C@H](C)CO)C[C@H]1C | 2
Cc1noc(C)c1S(=O)(=O)Nc1cccc2c1O[C@H](CN(C)Cc1ccc(C(=O)O)cc1)[C@@H](C)CN([C@H](C)CO)C2=O | -6
Cc1nc(SCC(=O)n2c3c(c4ccccc42)CCCC3)n[nH]1 | -12
C[C@@H]1CN([C@H](C)CO)C(=O)c2cc(NS(=O)(=O)c3cn(C)cn3)ccc2O[C@@H]1CN(C)Cc1ccc(-c2ccccc2)cc1 | 25
CNC(=S)N(Cc1ccco1)C1CC(=O)N(c2ccc(C(=O)OC)cc2)C1=O (stereo unspecified) | 24
O=C(NCc1cccnc1)C1CC(c2ccccc2Cl)=NO1 (stereo unspecified) | -4
CCOc1ccc(C(=O)c2oc3ccccc3c2NC(=O)c2cc3ccccc3oc2=O)cc1 | 24
C[C@H]1CN([C@@H](C)CO)C(=O)c2cccc(NC(=O)c3cnccn3)c2O[C@H]1CN(C)Cc1ccccc1 | -11
COc1ccccc1NC(=O)Cn1cc(C(=O)c2ccccc2F)c2ccccc21 | 29
Cc1noc(C)c1NC(=O)Nc1ccc2c(c1)C(=O)N([C@@H](C)CO)C[C@H](C)[C@@H](CN(C)S(C)(=O)=O)O2 | 0
CC(=O)Nc1cccc(NC(=O)CSc2nnnn2C)c1 | 6
O=c1oc(-c2ccccn2)nc2ccccc12 | 0
C[C@H]1CN([C@@H](C)CO)C(=O)Cc2cc(NC(=O)Cn3cnnn3)ccc2O[C@H]1CN(C)Cc1ccccc1 | 3
Cc1ccc(S(=O)(=O)Nc2cccc(C(=O)NC(C)(C)CO)c2)cc1 | 5
Nc1nc(CN2CCN(C(=O)c3ccco3)CC2)nc(N2CCCc3ccccc32)n1 | -9
COc1ccc(-c2ccc(CCC(=O)O)n2-c2ccc(N(C)C)cc2)cc1 | 14
C[C@H]1CN([C@@H](C)CO)C(=O)Cc2cc(NC(=O)CCCN(C)C)ccc2O[C@H]1CN(C)Cc1ccc(-c2ccccc2)cc1 | 27
C[C@H](CO)N1C[C@H](C)[C@H](CN(C)C)Oc2c(NS(=O)(=O)c3ccc(F)cc3)cccc2C1=O | -3
C[C@@H]1CN([C@H](C)CO)C(=O)c2cccc(NC(=O)Nc3ccc4c(c3)OCO4)c2O[C@@H]1CN(C)C(=O)Nc1ccc(F)cc1 | -8
COc1ccc(S(=O)(=O)Nc2ccc3c(c2)C(=O)N([C@H](C)CO)C[C@H](C)[C@H](CN(C)C(=O)Nc2ccc(F)cc2)O3)cc1 | -6
Cc1c(Br)sc2sc(-c3nn(C)cc3Br)c(C)c12 | ?
Cc1ccc(S(=O)(=O)N(C)C[C@H]2Oc3ccc(NC(=O)Nc4cccc5ccccc45)cc3CC(=O)N([C@@H](C)CO)C[C@H]2C)cc1 | 64

Quoted from the listing:
O=C(O)CCCC(=O)Nc1cc(C(=O)O)ccc1Cl – NOMO-1 viab: 15
COc1ccc(-c2ccc(CCC(=O)O)n2-c2ccc(N(C)C)cc2)cc1 – NOMO-1 viab: 14
C[C@@H]1CCCCO[C@@H](CN(C)Cc2ccncc2)[C@@H](C)CN([C@H](C)CO)C(=O)c2cc(NC(=O)Nc3ccc4c(c3)OCO4)ccc2O1 – NOMO-1 viab: 4
NC(=O)C1(N2CCCCC2)CCN(CC(=O)Nc2ccc(Br)cc2)CC1 – NOMO-1 viab: -14
C[C@H](CO)N1C[C@H](C)[C@H](CN(C)S(C)(=O)=O)Oc2c(cccc2N(C)C)C1=O – NOMO-1 viab: 0
C[C@@H]1CN([C@H](C)CO)C(=O)c2cc(NS(=O)(=O)c3cn(C)cn3)ccc2O[C@@H]1CN(C)Cc1ccc(-c2ccccc2)cc1 – NOMO-1 viab: 25

Additional results follow.
SMILES | NOMO-1 viab
Cc1oc2c(c1C(=O)NCCC(C)C)C(=O)c1ccccc1C2=O | 140*
CC(C)NC(=O)Nc1ccc2c(c1)C(=O)N([C@H](C)CO)C[C@H](C)[C@H](CN(C)C(=O)Nc1ccc3c(c1)OCO3)OCCCC[C@@H](C)O2 | 11
COc1ccc(S(=O)(=O)N(C)C[C@H]2Oc3ccc(NC(=O)c4ccncc4)cc3CC(=O)N([C@@H](C)CO)C[C@H]2C)cc1 | 23
CC(C)NC(=O)N(C)C[C@H]1Oc2ccc(NC(=O)c3ccncc3)cc2CC(=O)N([C@@H](C)CO)C[C@H]1C | 12
S=C(Nc1ccccc1)c1ccccc1 | 6
Cn1c(Cc2cccc3ccccc23)nnc1SCc1ccccc1C#N | 8
CC(C)NC(=O)Nc1ccc2c(c1)CC(=O)N([C@@H](C)CO)C[C@H](C)[C@@H](CN(C)C(=O)Nc1ccc(C(F)(F)F)cc1)O2 | -2
CC(C(=O)Nc1cccc(Br)c1)N(c1ccc(Cl)cc1)S(C)(=O)=O (stereo unspecified) | 44
COc1ccccc1N1CCN(C(=O)CSc2nc3ncnc(N)c3[nH]2)CC1 | 3
Cc1ccc(S(=O)(=O)Nc2ccc3c(c2)C(=O)N([C@H](C)CO)C[C@H](C)[C@H](CN(C)C(=O)NC(C)C)O3)cc1 | -22
C[C@H]1CN([C@@H](C)CO)C(=O)c2cccc(NS(=O)(=O)c3ccccc3)c2O[C@H]1CN(C)C | -5
C[C@H]1CN([C@@H](C)CO)C(=O)c2cc(NC(=O)Nc3ccc(F)cc3)ccc2O[C@@H]1CN(C)C | 31
N#Cc1ccccc1CSc1nc(N2CCCCC2)nc(N2CCCCC2)n1 | 24
Cc1noc(C)c1NC(=O)Nc1cccc2c1O[C@H](CN(C)Cc1ccc(Cl)c(Cl)c1)[C@@H](C)CN([C@H](C)CO)C2=O | 8
COC(=O)c1cccc2oc3cc(CO)cc(O)c3c(=O)c12 | 71
C=Cc1c(S(C)(=O)=O)sc(C(=O)Oc2ccccc2)c1C | 14

Source: PubChem BioAssay
